Bioassay records (PubChem BioAssay)
KSHV LANA nucl – LANA-nucleosome interaction inhibition | FITC-LANA1-23 / chicken nucleosome fluorescence polarization; hits give low values | z-score (concentration not given with the values) | hit rate 0.3% among 51,000 | AID 720717;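 active = both repeat wells score below -2 in polarization z-score versus plate sample wells, excluding overly bright wells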;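 also: 100 nL library stock added to about 30 µL; numbers are from one replicate; some results filed as inactive read as strong as hits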
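Assay system: purified chicken nucleosomes with FITC-labelled LANA N-terminal peptide (1-23) / Probe or stimulus: 50 nM FITC-LANA1-23 probe / Compound dosing: pin-transferred compound, 100 nL / Times: compound with peptide–nucleosome mix 10–45 min at room temperature / Technique: fluorescence polarization, 480 nm excitation, 535 nm parallel and perpendicular emission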
BasE inh – blocks the Acinetobacter baumannii siderophore enzyme BasE; inhibition, % (concentration not given with the values); AID 485350; hit rate 0.1% among 84,000; purified BasE, fluorescence polarization binding displacement;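 active = both replicates above 25% with normal brightness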;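 also: 0% = negative plate control signal and 100% = positive plate control signal; stock transfer was 100 nL into about 30 µL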
Active calls of the source: *; nt = no result given.

SMILES	KSHV LANA nucl	BasE inh
Cc1cc2ccccc2n1-c1ccc(C(=O)N2CCc3ccccc32)s1	-0.024	-1.8
CCC(C)NC(=O)c1n[nH]c(=O)c2ccccc12 (configuration not stated)	nt	0.7
COc1ccc(-c2noc(N3CCC(C(=O)N4CCN(c5ccccc5)CC4)CC3)n2)cc1	0.62	-0.8
O=C(Nn1c(=S)[nH]c2ccccc2c1=O)c1ccncc1	0.134	0.8
CCN(CC)C(=O)CSc1nsc(SCC(=O)N(CC)CC)c1C#N	0.0515	0.0
Cc1ccc(S(=O)(=O)n2cccn2)cc1C	-1.58	1.6
CC1CCCCC1NC(=O)COc1ccc(-n2cnnn2)cc1 (configuration not stated)	nt	-3.2
O=C1CCc2cc(C3=CSC4=NCCN34)ccc2N1	nt	-2.5
O=C1Nc2ccc(F)cc2C12OCCO2	0.0535	-1.8
CCOC(=O)C1=C(CN2CC=C(c3ccccc3)CC2)NC(=O)NC1c1cccc(OC)c1OC (configuration not stated)	-0.981	1.0
Cc1c(C(=O)Nc2ccc(OC(F)F)cc2)oc2ccc(Cl)cc12	-0.549	2.2
O=c1[nH]c(C2CCCNC2)nc2c1nnn2Cc1ccccc1 (configuration not stated)	0.448	-1.3
Brc1ccc(Cn2ccnc2)cc1	0.854	-1.7
CCCCn1c(-c2ccccc2)n[nH]c1=S	-1.05	2.8
CCCSc1nc2ccccc2n1CC(=O)Nc1ccc(C(N)=O)cc1	nt	-2.9
O=C(NCc1ccccc1F)c1cnc(N2CCCC2)nc1	0.578	0.5

The final two compounds of the part before open the next one.
SMILES	KSHV LANA nucl	BasE inh
CCCSc1nc2ccccc2n1CC(=O)Nc1ccc(C(N)=O)cc1	nt	-2.9
O=C(NCc1ccccc1F)c1cnc(N2CCCC2)nc1	0.578	0.5
COc1ccccc1NC(=O)C(C)NC(C)C (configuration not stated)	nt	-1.1
Cc1ccccc1CSCc1nc(N)nc(Nc2ccccc2C)n1	nt	2.7
CCOC(=O)c1oc2ccccc2c1CSc1nnnn1-c1ccc(OC)cc1	nt	-0.7
CCCc1c(NC(=O)Nc2ccc(Cl)cc2Cl)cnn1-c1ccccc1	nt	0.1
COc1cccc(C(=O)NCCS(=O)(=O)N2CC(C)CC(C)C2)c1 (configuration not stated)	0.744	1.7
Cc1cccc(N2CCN(C(c3ccccc3F)c3nnnn3C(C)C)CC2)c1C (configuration not stated)	-1.59	-0.5
CC1(C)Oc2ccc3ccc(=O)oc3c2-c2cn[nH]c21	-0.191	-0.4
CCCn1c(SCC(=O)NCC23CC4CC(CC(C4)C2)C3)n[nH]c1=O	nt	4.3

An excerpt taken from the entries so far:
SMILES	KSHV LANA nucl	BasE inh
Cc1ccccc1CSCc1nc(N)nc(Nc2ccccc2C)n1	nt	2.7
CCOC(=O)c1oc2ccccc2c1CSc1nnnn1-c1ccc(OC)cc1	nt	-0.7

(more compounds)
SMILES	KSHV LANA nucl	BasE inh
CC(=S)Nc1ccc(Nc2ccccc2)cc1	-0.913	2.3
Cn1ncc(NCCc2ccncc2)c(Cl)c1=O	nt	0.7
CC(C)C(Nc1ncnc2c1oc1ccccc12)C(=O)O (configuration not stated)	-0.815	3.1
CC(C)Sc1nc(-c2cccs2)cc(C(F)(F)F)c1C#N	nt	-0.4
CCOC(=O)Cc1nnc2c3nnc(CC(=O)OCC)n3c3nonc3n12	0.332	-0.4
O=C(CN1CCN(C(=O)c2ccccc2)CC1)Nc1cccc2nsnc12	nt	0.2
Clc1ccnnc1N1CCCC2CCCCC21 (configuration not stated)	0.187	-0.8
Oc1[nH]c2ccccc2c1C=NCc1ccccc1	nt	1.8
CCC1CCCCN1C(=O)Cn1c(=O)n(CCC(=O)NCc2ccc3c(c2)OCO3)c(=O)c2ccccc21 (configuration not stated)	0.32	1.8
COC(=O)c1ccc(CSc2c(C)[nH]c3ccccc23)o1	0.369	2.0
COc1ccccc1C1CCN(Cc2cn[nH]c2-c2ccc(F)cc2)CC1	-0.451	1.5
CCCN(CC1CC1)C(=O)COc1ncnc2sccc12	nt	1.4
O=C(OCC(=O)c1cc2ccccc2o1)c1cc(F)cc(F)c1	nt	-8.8
CC1Cc2ccccc2N1C(=O)COc1ncnc2ccc(Br)cc12 (configuration not stated)	nt	-1.7
Cc1ccc(-c2nn(-c3ccccc3Cl)cc2C(=O)Oc2ccc(-c3nnco3)cc2)cc1	nt	-2.0
CCn1c(=O)n(CC)c2cc(NC(=O)CSc3ncc(C#N)c(N)n3)ccc21	0.627	-0.3
CCn1cc2nc(SC)n(CCc3ccccc3)c(=O)c2n1	nt	0.1
Cc1ccc(C(=O)CCNc2ccc(F)c(Cl)c2)o1	0.486	1.7
O=S(=O)(NC1CC1)c1ccc(S(=O)(=O)N2CCC3(CC2)OCCO3)cc1	0.742	0.8
O=C(COc1coc(CN2CCN(Cc3ccccc3)CC2)cc1=O)NC1CCCCC1	0.547	-0.8
COc1c2c(nc3occc13)C(CC=C(C)C)(OC)C(O)CC2 (configuration not stated)	0.339	-1.4
COc1cc(C(Nc2ccc(S(=O)(=O)NCC3CCCO3)cc2)C(=O)NC(C)(C)C)cc(OC)c1OC (configuration not stated)	2.62	-3.5
CCOc1ccc(NC(=O)CSc2nc(=O)n(CCCN3CCOCC3)c3c2CCCC3)cc1	-0.673	-2.7
FC(F)C(F)(F)Oc1ccccc1	nt	-0.9
Cc1oc(-c2ccccc2)cc1C(=O)/C=C/N(C)C	-0.122	1.8
Cc1csc(NC(=O)c2cccnc2)n1	-0.527	3.4
N#Cc1ccc(CON2C(=O)CCC2=O)cc1	nt	3.3
O=C(Cc1c[nH]c2ccccc12)N1CCN(S(=O)(=O)c2ccc(F)cc2)CC1	0.805	1.5
CCc1ccc2oc3nc(N)c(C#N)cc3c(=O)c2c1	nt	2.5
CN1C(=O)c2ccccc2Sc2ccc(NC(=O)NCCCN3CCOCC3)cc21	-1.13	-5.6
CCCCc1cc(=O)oc2cc(OCC(=O)c3ccc(F)cc3)ccc12	nt	2.1
O=C1NCCN1CCNS(=O)(=O)c1ccc(F)c(Cl)c1	-0.147	-1.7
Cc1nnc(SC(C)C(=O)Nc2ccccc2)[nH]c1=O (configuration not stated)	-0.427	0.4
O=C(Nc1cccn(Cc2ccccc2)c1=O)NC1CCCCC1	-1.1	0.4
COc1ccc(N2CCN(c3ccc(S(=O)(=O)N(C(C)C)C(C)C)cn3)CC2)cc1	nt	2.0
C=C(C)CNC(=S)N1CCSC1=Nc1ccccc1OC	nt	0.1
Cc1c(C(=O)NCCN2CCOCC2)oc2c1-c1nn(Cc3ccccc3Cl)cc1CC2	0.062	0.2
CC1(c2ccc(Cl)cc2)NC(=O)N(CN2CCCC(C(F)(F)F)C2)C1=O (configuration not stated)	nt	3.0
CCc1ccc2nc(N3CCCC3)c(C#N)cc2c1	-0.927	1.0
O=C1NC(Cc2ccccc2)(Cc2ccccc2)C(=O)N1Cc1nnc(-c2cccs2)o1	nt	0.8
CCN(CC)C(=O)c1ccc(COc2ccc(Cl)c(C)c2)o1	0.562	-1.3
S=c1sc2ccccc2n1CN1CCN(Cc2ccccc2)CC1	nt	4.5
CC[C@H](C)[C@H](NC(N)=O)C(=O)Nc1ccccc1	nt	-2.1
Cc1nc(NCC(=O)O)c2oc3ccccc3c2n1	0.544	0.0
Cc1ccc(C(=O)NNc2ncnc3c2cnn3C)cc1	-1.15	-1.4
COC(=O)C1CCN(C(=O)c2ccc(Cl)cc2)CC1	-0.039	nt
Cc1nn(C)c(C)c1CNC(=O)c1cc2nc(-c3ccc4c(c3)OCO4)cc(C(F)(F)F)n2n1	nt	1.9
O=C1CSc2ccc(S(=O)(=O)CCC(=O)N3CCCCCC3)cc2N1	-1.63	2.8
CC(=O)Nc1ccc(C)c(OC(F)F)c1	nt	1.9
CC(C)(O)c1cc(=O)sc2nc3ccccc3n12	0.183	-1.5
Cc1cc(C)cc(OCC(=O)N2CCNC(=O)C2CC(=O)OCc2ccccc2)c1 (configuration not stated)	0.292	0.4
COc1ccccc1CNC(=O)C(C)N1C(=O)COc2ccc(C)cc21 (configuration not stated)	-0.0975	-0.7
O=C(Nc1ccc(F)cc1)N1CCCC(c2nc3c(nnn3Cc3ccccc3Cl)c(=O)[nH]2)C1 (configuration not stated)	0.782	-0.5
COc1cccc(CNC(=O)Nc2ccc3nc(N4CCN(C)CC4)cc(C)c3c2)c1	nt	-2.7
CCC1/C(=N\O)CC(c2ccco2)NC1c1ccco1 (configuration not stated)	-0.153	1.6
O=S(=O)(c1ccc(Cl)s1)N1CCSc2ccccc21	nt	-2.0

The list goes on.
SMILES	KSHV LANA nucl	BasE inh
Brc1cccc(Nc2nc3nonc3nc2NCc2ccco2)c1	-1.16	-1.7
O=C(NC1CCCCCC1)c1ccc(CS(=O)(=O)Cc2ccccc2F)o1	0.294	-0.7
C[C@H]1[C@H]2CC[C@H]3[C@@H]4CC=C5C[C@@H](N(C)C)CC[C@]5(C)[C@H]4CC[C@]23CN1C	0.307	-1.0
CCOC(=O)c1ccsc1NC(=O)CN1C(=O)c2ccccc2C1=O	1.23	0.7
Nc1ccccc1C1CC1	-0.0895	1.9
Clc1ccc(C2Nc3ccccc3O2)cc1Cl (configuration not stated)	nt	-0.8
Cc1nc(C)c(NC(=O)N2CCCCC2C)cc1NC(=O)N1CCCCC1C (configuration not stated)	-0.519	0.7
Cc1c(C(=O)Oc2ccccc2F)oc2ccccc12	2.87	-2.9
O=C(CON1C(=O)CCC1=O)N1CCN(c2ccccc2)CC1	nt	1.4
O=C(N=Nc1c(O)n(CN2CCCC2)c2ccccc12)c1ccccc1	-1.51	0.6
CN(C)C(=S)SCC(=O)NC1CCCCCC1	nt	2.5
CN(C)S(=O)(=O)c1ccc(N=CC2=C(O)CC(C)(C)CC2=O)cc1	nt	5.2
O=C(N/N=C/c1ccc([N+](=O)[O-])o1)c1ccc(O)cc1	0.508	15.6
COc1cc(/C=N/n2c(=S)[nH]nc(C)c2=O)cc(OC)c1OC	-0.397	2.8
C=CCSc1ncc(-c2ccccc2)cn1	0.403	nt
O=C(COC(=O)C1CC1)c1ccccc1Br	nt	2.8
COc1cccc(C(=O)NCC(C)C)c1	0.901	-2.6
Cn1cnc2c(=O)oc3ccccc3c21	-0.582	3.2
Cc1cccc(OCC(=O)Nc2ccc(CC(=O)O)cc2)c1C	-0.79	2.8
Cn1c(Cc2cccs2)nnc1SCC(=O)N1CCCc2ccccc21	-0.615	0.9
O=C(CCn1nc(-c2ccc(Cl)cc2)c2ccccc2c1=O)N1CCN(Cc2ccccc2)CC1	nt	1.2
O=C(Nc1ccccc1)C1=NN(c2ccccc2)C(=O)CC1	nt	2.8
N#C/C(=C\c1ccc(OC(=O)c2ccco2)cc1)S(=O)(=O)c1ccccc1	0.002	1.0
Nc1ccc(Sc2ccc(Cl)cc2)nc1	-0.135	3.8
COc1ccc(C(=O)NCc2nnc(SCC(=O)NO)n2-c2cccc(F)c2)cc1	0.198	0.1
CCCSC(=S)c1c(C)[nH]n(-c2ccccc2)c1=O	0.322	-0.1
Cc1cn(S(=O)(=O)c2cn(C)nc2C(F)(F)F)nc1C(F)(F)F	0.421	2.8
O=C(CN1CCCC1)N1CCc2ccccc21	0.658	nt
N/C(=N\OC(=O)Cc1ccccc1)c1ccncc1	0.914	-1.7
COc1ccc2c(c1)-c1nc(/N=C/c3ccc(C)o3)sc1CC2	-0.105	1.0
COc1ccc(-n2c3c(cc(C#N)c2=O)C(=O)CCC3)cc1	0.208	-0.1
COc1ccc(CCN(C)C(=O)Cn2c(=O)oc3ccccc32)cc1OC	nt	2.0
CC1(C)C2CCC1(C)C(OCC[N+]1(C)CCCC1)C2 (configuration not stated)	nt	-4.6
N#CC1(NC(=O)c2cc3ccccc3oc2=O)CCCCC1	nt	-1.8
CCOC(=O)/C(C#N)=C\c1cn(C)c2ccccc12	-0.188	0.6
CC1(C)CC2CC(C)(CN2CC(O)COCc2ccc(Cl)cc2)C1 (configuration not stated)	nt	0.8
CN(C)CCCN1C(=O)C(=O)/C(=C(/O)c2ccc3c(c2)OCO3)C1c1cccnc1 (configuration not stated)	1.54	-0.8
Cc1ccc(-n2c(C)cc(C=Nc3ccc4[nH]c(=O)[nH]c4c3)c2C)cc1	nt	0.6
COc1ccc(CN2C(=O)N(CC(=O)NC(C)C)c3ccccc3S2(=O)=O)cc1	0.764	-0.1
N#C/C(=C\Nc1cc(C(F)(F)F)cc(C(F)(F)F)c1)S(=O)(=O)c1ccccn1	nt	-2.3
O=C1CS/C(=C\C(=O)N2CCOCC2)N1	0.497	nt
CC(C)(C)NC(=O)C1CCN(S(=O)(=O)c2ccccc2)CC1	-0.531	0.6
CC(=O)Nc1cccc(/C(C)=N/NS(=O)(=O)c2ccc(C)cc2)c1	-1.15	-0.5
CCCN(CCC)c1cc(Cl)nc(N)n1	-0.308	nt
CC1(C)CC(=NOC(=O)c2ccccc2)CC(C)(C)N1[O]	0.129	0.4
CCOC(=O)c1nc(NCCCN2CCc3ccccc3C2)c2ccccc2n1	0.119	-1.5
CC(OC(=O)c1ccc(Cl)c(S(N)(=O)=O)c1)c1nnc(-c2cccs2)o1 (configuration not stated)	nt	-4.0

This is a subset. The share of hits here may be higher or lower than overall.
